AF4-AF9 inh = MLL-AF4/AF9 protein interaction inhibition; P42568; AlphaScreen, biotin-AF4 peptide binding to FLAG-AF9; inhibition, % at 10 µM; 350,000 compounds, 0.47% hits;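 active = every replicate reaching a set inhibition limit, whatever the replicate mean, cut at about 25% in these data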;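 also: 0% = plate neutral control median and 100% = total signal loss; the record names both 10 and 1 µM as test concentration; the first replicate is given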
Target sequence (P42568 whole entry, looked up): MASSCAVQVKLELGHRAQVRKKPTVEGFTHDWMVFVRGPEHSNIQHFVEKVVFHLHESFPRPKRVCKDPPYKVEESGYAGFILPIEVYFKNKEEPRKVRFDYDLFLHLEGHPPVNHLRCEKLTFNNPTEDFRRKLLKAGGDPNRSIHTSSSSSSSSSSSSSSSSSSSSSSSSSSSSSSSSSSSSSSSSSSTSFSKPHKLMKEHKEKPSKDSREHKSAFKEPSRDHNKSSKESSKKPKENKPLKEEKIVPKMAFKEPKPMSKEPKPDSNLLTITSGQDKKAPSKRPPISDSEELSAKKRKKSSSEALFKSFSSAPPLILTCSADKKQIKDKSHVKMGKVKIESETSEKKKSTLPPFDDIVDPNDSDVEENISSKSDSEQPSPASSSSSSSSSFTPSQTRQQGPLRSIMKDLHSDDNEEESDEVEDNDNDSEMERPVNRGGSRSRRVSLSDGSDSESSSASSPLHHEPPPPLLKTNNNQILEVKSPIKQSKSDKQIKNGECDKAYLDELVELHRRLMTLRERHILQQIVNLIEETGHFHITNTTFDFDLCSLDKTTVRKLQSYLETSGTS
E coli growth = blocks Escherichia coli growth | OD600, 23 h; active compounds read low | OD600 absorbance (test concentration not listed) | 330,000 compounds, 0.21% hits | AID 1053175;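 active = OD600 absorbance below the run mean of sample wells minus 3.6 SD, in any replicate, cut at about 0.56 in these data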;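 also: stock transfer was 300 nL into about 60 µL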
FGF22 binding = shifts melting point of recombinant human FGF22; Q9HCT0; recombinant FGF22 thermal shift, SYPRO orange fluorescence; percent of sucrose octasulfate shift, DMSO zero; calls only at 9.99 µM; 340,000 compounds, 1.5% hits;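 active = melting point raised past a set limit in the mean and every replicate; three in four hits are not shown here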
Target sequence (Q9HCT0 whole entry, looked up): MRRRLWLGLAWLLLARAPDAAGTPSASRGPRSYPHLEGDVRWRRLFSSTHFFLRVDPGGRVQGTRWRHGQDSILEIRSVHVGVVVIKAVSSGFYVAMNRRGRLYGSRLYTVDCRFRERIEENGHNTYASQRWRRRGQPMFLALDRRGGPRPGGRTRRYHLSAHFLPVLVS
UCH37 inh = human UCH37 deubiquitinating enzyme inhibition; Q9Y5K5; purified proteasome/UCH37, Ub-AMC cleavage fluorescence; inhibition, % (concentration not given with the values); 330,000 compounds, 0.33% hits; AID 588478;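 active = mean of two replicates above 20%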;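 also: 0% = compound-free wells with enzyme and 100% = wells lacking proteasome; stock transfer was 100 nL into about 20 µL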
Target sequence (Q9Y5K5 whole entry, looked up): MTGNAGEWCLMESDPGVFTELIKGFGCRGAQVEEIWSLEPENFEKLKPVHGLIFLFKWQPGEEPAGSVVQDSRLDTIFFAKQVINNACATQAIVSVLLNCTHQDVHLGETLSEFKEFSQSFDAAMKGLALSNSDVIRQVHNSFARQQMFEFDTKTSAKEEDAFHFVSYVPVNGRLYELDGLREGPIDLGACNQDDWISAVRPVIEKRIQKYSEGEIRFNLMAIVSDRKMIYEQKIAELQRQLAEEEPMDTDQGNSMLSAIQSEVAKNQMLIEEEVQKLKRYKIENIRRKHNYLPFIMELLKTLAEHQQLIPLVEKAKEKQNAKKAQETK
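Schedule: 30 min plus 25 min, room temperature / Material: human UCH37 within purified proteasomes / Technique: AMC fluorescence intensity at 355/460 nm / Buffer or medium: pH 7.4 Tris-HCl (50 mM) with ovalbumin, ATP-MgCl2, DTT / Controls: wells without proteasome as full block, compound-free enzyme plus substrate as uninhibited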
Ecoli rRNA inh = inhibits bacterial ribosomal RNA function over humanized ribosomes; E. coli WT GFP vs humanized-ribosome RFP mutants, fluorescence, 24 h; active compounds read low; DMSO median 0, no signal -100; GFP signal change (wild-type ribosome), % (concentration not given with the values); 350,000 compounds, 1.6% hits; AID 720706;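 active = significant combined selectivity score with lowered wild-type GFP, culture density cut under 30%, mutant RFP and density less affected; inactive = any of these conditions unmet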; also: one replicate is shown; some compounds called inactive have numbers as strong as hits
T cruzi inh = blocks replication of Trypanosoma cruzi; 300,000 compounds, 1.4% hits; T. cruzi beta-gal in NIH3T3, luminescence, 90 h; inhibition, % (test concentration not listed); AID 1885;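 active = mean inhibition across valid replicates above about 55%, limit read from the data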;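 also: signal also drops with host cell toxicity which is not excluded here; 0% = plate median of DMSO wells and 100% = zero luminescence signal; higher percent means less beta-gal luminescence so fewer parasites; stock transfer was 50 nL into about 50 µL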
Beta apoptosis = blocks beta cell apoptosis; INS-1E cytokine-induced death, ATP luminescence, 48 h; percent of positive-control rescue, neutral wells zero; protection from apoptosis, % (no concentration beside the values); 300,000 compounds, 0.8% hits;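 active = all replicates at 75% or more, or half of them and the mean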;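 also: 0% = cytokine-treated negative control wells and 100% = positive control rescue; higher means more ATP so stronger rescue from cytokine killing; wells of about 40 µL received 100 nL stock; the first replicate is given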
Bfl-1 A1 inh = inhibitors of the anti-apoptotic protein A1, read as caspase activation; caspase activation, % (concentration not given with the values); 330,000 compounds, 0.066% hits; AID 2462; MEF A1-2A-BIM cells, Caspase-Glo 3/7 luminescence, 3 h; percent of clofoctol response, vehicle zero;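 active = over half of replicate activation scores above 10%, or exactly half above 10 with the replicate mean above 10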;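 also: wells of about 30 µL received 50 nL stock; many hits fall short of the cut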
Ecoli rRNA inh OD600 = also measured in Ecoli rRNA inh; calls as there; OD600 change, %; measured here: OD600 growth;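 optical density of the mix in the first replicate; 0 = DMSO median and -100 = no signal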
Ecoli rRNA inh RFP = second read-out of Ecoli rRNA inh, no call of its own (marks repeat the call); RFP signal change, %; measured here: RFP humanized mutant strains;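 first replicate; 0 = DMSO median and -100 = no signal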
Active calls of the source: *; i = inactive; nt = no result given.

1	CCn1c(N)c(C(=O)NCc2cccnc2)sc1=S
2	COc1ccc(OCC(O)CNC(=O)c2ccc(OC)cc2)cc1 (centres undefined)
3	CC(C)=CCC/C(C)=C/CNC(=O)C[C@H]1C[C@H](C(=O)N2CCOCC2)[C@@]2(CCC3CCCC3)c3[nH]c4cc(-c5ccco5)ccc4c3CCN2C1=O
4	CCc1ccc2c(c1)C(c1ccc([N+](=O)[O-])cc1)=NNC(c1ccc(F)cc1)=N2
5	Cc1ccc2[nH]nc(C(=O)N3CCCC(C(=O)c4ccc(Cl)cc4)C3)c2c1 (centres undefined)
6	CCCCn1c(N)c(N(CC(C)C)C(=O)CCCc2nc3ccccc3s2)c(=O)[nH]c1=O
7	Cc1noc(C)c1S(=O)(=O)N1CCN(c2ccc([N+](=O)[O-])cc2)CC1
8	COC(=O)C(=Nc1ccccc1)/C(C(=O)C(=O)N(C)c1ccccc1)=C(\O)c1ccccc1
assay / compound	1	2	3	4	5	6	7	8
AF4-AF9 inh	nt	-10.5	-1.7	nt	-0.9	-1.4	1.6	-0.1
E coli growth	0.705	0.721	0.714	0.75	0.663	0.646	0.7	nt
FGF22 binding	nt	i	nt	nt	nt	i	i	i
UCH37 inh	8.8	0.5	-28.7	6.9	1.3	-0.8	6.2	nt
Ecoli rRNA inh	nt	6.1	-0.6	nt	-43.9	5.8	1.4	-25.0*
Ecoli rRNA inh OD600	nt	3.2	18.8	nt	-71.9	9.4	-2.8	-0.6*
Ecoli rRNA inh RFP	nt	2.8	26.4	nt	-5.7	-0.2	0.0	9.2*
T cruzi inh	-6.1	-2.0	nt	29.4	-16.6	-7.3	0.3	6.4
Beta apoptosis	-0.5	3.7	nt	7.0	1.7	1.9	-7.2	0.6
Bfl-1 A1 inh	0.3	-0.4	nt	-0.6	-1.1	-0.3	-0.3	-1.6

9	Cc1ccccc1OCCn1c(C)nc2ccccc21
10	COc1ccccc1NC(=O)NCC(=O)Nc1c(C)cccc1C
11	CCOC(=O)c1ccc(NC(=O)c2ccc3c(c2)OCO3)cc1
12	CCc1ccc(-n2c(=O)c3c(C)c(C(=O)N(C)C)sc3n(CC(=O)NCC3CCCO3)c2=O)cc1 (centres undefined)
13	CN(C)c1ccc(C(=O)OCc2cc(=O)n3ccsc3n2)cc1
14	O=C(CCNS(=O)(=O)c1cccc(C(F)(F)F)c1)NC1CC1
15	Cc1ccc(CS(=O)(=O)c2ncn[nH]2)cc1
16	Cc1ccc(C(=O)OCC(=O)NC(=O)NCc2ccccc2)cc1C
assay / compound	9	10	11	12	13	14	15	16
AF4-AF9 inh	-1.6	0.0	nt	-0.5	-4.2	1.8	0.0	2.0
E coli growth	0.64	0.683	0.747	0.688	0.722	0.668	0.682	0.682
FGF22 binding	i	i	nt	i	i	i	i	i
UCH37 inh	1.1	4.2	6.6	0.9	-4.5	3.7	4.6	4.3
Ecoli rRNA inh	-15.7	16.4	nt	5.5	5.0	8.0	6.3	24.4
Ecoli rRNA inh OD600	-25.8	-3.0	nt	3.0	0.6	16.9	5.4	27.9
Ecoli rRNA inh RFP	-1.4	1.0	nt	-0.5	-6.7	3.8	-0.8	0.9
T cruzi inh	5.7	-17.9	-12.0	3.5	nt	nt	-3.3	nt
Beta apoptosis	77.7*	nt	4.9	3.9	nt	-4.1	1.2	-3.7
Bfl-1 A1 inh	0.6	0.3	-4.8	-1.1	nt	1.9	0.7	-0.2

17	Cc1ccc(NC(=O)NCCN2CCN(c3ccccc3)CC2)cc1Cl
18	CCN1C(=O)/C(=C\c2cccs2)C(C(=O)OC)=C1C
19	CCCNC(=O)COC(=O)c1ccc(N2CCCC2)c([N+](=O)[O-])c1
20	COc1ccc(C(C(=O)NC2CCCCC2)N(C(=O)c2sc(C)nc2C)c2ccccc2C)cc1 (centres undefined)
21	Cc1ccc(S(=O)(=O)N(CC(=O)N(C(C)C)C(C)C)C(=O)N2CCN(C)CC2)cc1
22	Cc1cc(F)ccc1S(=O)(=O)Nc1ccc(C(=O)N2CCCCC2)cc1
23	CC(=O)c1ccc(S(=O)(=O)N2CCN(C(=O)CN3C(=O)NC4(CCCC4)C3=O)CC2)cc1
24	CCCCn1c(SCC(=O)Nc2oc(C)c3c(C)n[nH]c(=O)c23)nc2cc(S(N)(=O)=O)ccc21
assay / compound	17	18	19	20	21	22	23	24
AF4-AF9 inh	-3.8	nt	-1.3	nt	0.8	-2.3	-10.4	0.0
E coli growth	0.69	0.741	0.694	0.685	0.68	0.665	0.629	0.692
FGF22 binding	i	nt	i	nt	i	i	i	i
UCH37 inh	4.6	9.0	3.8	0.8	1.0	-0.4	3.3	-3.3
Ecoli rRNA inh	8.7	nt	4.0	nt	4.0	5.6	7.8	19.9
Ecoli rRNA inh OD600	20.7	nt	-7.7	nt	13.4	-27.5	17.9	7.3
Ecoli rRNA inh RFP	1.7	nt	0.2	nt	-2.5	-0.6	-1.7	1.6
T cruzi inh	4.1	0.2	-0.2	19.4	-7.8	nt	2.2	0.0
Beta apoptosis	-7.5	-0.9	-1.8	-1.6	-5.7	-11.4	0.3	nt
Bfl-1 A1 inh	-0.1	-0.1	-1.7	1.4	0.0	-0.1	-0.4	0.3

25	CC1=CN2C(=N)/C(=C/c3ccc(Sc4ccc(Cl)cc4)o3)C(=O)N=C2S1
26	O=C(NNC(=O)c1cccc2ccccc12)c1ccccc1O
27	CCN(CC(=O)NCc1cccs1)C(=O)c1ccc(S(=O)(=O)Nc2ccccc2Cl)cc1
28	Cc1ccnc(NC(=O)CCC(=O)N(CC(=O)NC2CCCCC2)c2ccc3c(c2)OCO3)c1
29	CC(C)c1ccc(NC2CCCN(C(=O)c3ccnc(Cl)c3)C2)cc1 (centres undefined)
30	CCN(CC)C(=O)/C(=C/c1ccc(F)cc1)NC(C)=O
31	O=C(Cc1ccc([N+](=O)[O-])cc1)Nc1ccc(O)cc1C(=O)O
32	COc1cc(C(=O)Nc2ccc3c(c2)ncn3C)cc(OC)c1OC
assay / compound	25	26	27	28	29	30	31	32
AF4-AF9 inh	2.4	1.3	0.9	nt	7.2	4.6	-0.1	1.0
E coli growth	0.723	0.666	0.641	0.732	0.685	0.71	0.691	0.699
FGF22 binding	i	i	i	nt	i	i	i	i
UCH37 inh	8.4	0.6	1.6	4.7	1.1	4.7	4.2	5.7
Ecoli rRNA inh	0.8	-3.0	-3.5	nt	6.1	nt	16.3	3.5
Ecoli rRNA inh OD600	17.2	-13.7	-18.1	nt	-15.1	nt	5.5	1.2
Ecoli rRNA inh RFP	28.5	-5.3	-1.0	nt	-3.4	nt	-0.3	-1.9
T cruzi inh	-6.8	-12.3	nt	-3.8	-8.9	-9.1	-9.4	-109.1
Beta apoptosis	-10.3	69.0	-2.0	-6.5	-2.4	-5.9	-8.5	31.9
Bfl-1 A1 inh	0.6	-0.3	0.7	-0.2	-0.9	-0.6	0.8	2.2

33	Cc1ccc([N+](=O)[O-])cc1NC1OC(CO)C(O)C1O (centres undefined)
34	COc1ccccc1CN(C)C(=O)c1cccc(S(=O)(=O)N2CCCc3ccccc32)c1
35	COc1ccccc1C1C=C(c2ccccc2)Nc2nnnn21 (centres undefined)
36	CCOC(=O)N1CCC(NC(=O)C2CCCN(S(C)(=O)=O)C2)CC1 (centres undefined)
37	O=C(CSC1=Nc2ccccc2C2=NC(CC(=O)NCc3ccco3)C(=O)N12)NCc1ccco1 (centres undefined)
38	O=C(O)c1ccc(/C=N/NC(=O)C2CC2(c2ccccc2)c2ccccc2)cc1 (centres undefined)
39	Cc1ccc(C2CC(=O)Oc3cc(O)ccc32)cc1 (centres undefined)
40	CC(=O)N1N=C(c2ccncc2)CC1c1ccccc1O (centres undefined)
assay / compound	33	34	35	36	37	38	39	40
AF4-AF9 inh	0.2	-1.3	nt	2.1	nt	-2.3	-7.4	0.8
E coli growth	0.65	0.693	0.717	0.719	0.721	nt	nt	nt
FGF22 binding	i	i	nt	i	nt	i	i	i
UCH37 inh	3.8	4.1	-6.5	2.2	1.6	nt	nt	nt
Ecoli rRNA inh	-21.1	nt	nt	6.6	-7.1	6.4	7.9	11.6
Ecoli rRNA inh OD600	-32.6	nt	nt	1.2	2.2	14.7	-2.8	3.4
Ecoli rRNA inh RFP	-7.1	nt	nt	-6.5	-1.5	1.9	18.9	-1.5
T cruzi inh	9.2	nt	-6.6	12.7	-3.8	10.3	-8.1	-10.7
Beta apoptosis	-13.1	-4.8	-4.8	1.0	-9.1	-9.7	-0.7	-3.8
Bfl-1 A1 inh	0.3	-0.5	-0.1	0.1	0.0	1.0	-0.6	-0.4

41	O=C(Cc1ccccc1)NNC(=O)c1ccc(Br)o1
42	O=C(CN1C(=O)CC(c2ccccc2)S(=O)(=O)c2ccccc21)N1CCCC1 (centres undefined)
43	CCOC(=O)c1cc(C#N)c(SCC(=O)c2cc(C#N)c(SC)nc2C)[nH]c1=O
44	O=C1c2ccccc2C(=O)N1CCc1ccccn1
45	CCOC(=O)C1CCN(C(=O)C(C)c2ccc([N+](=O)[O-])cc2)CC1 (centres undefined)
46	O=C(NCCc1ccccc1)C1CCC(=O)N(CCCN2CCCC2=O)C1 (centres undefined)
47	Cn1cnnc1Sc1ccc(/C=C/C(=O)c2ccc(O)cc2)cc1[N+](=O)[O-]
48	CCN(C(=O)CSc1ncccn1)c1cccc2ccccc12
49	COc1cc(C(=O)NC2CC(C)(C)CC(C)(C)C2)ccc1OC1CCN(C(C)=O)CC1
50	COC(=O)c1cn(NC(=O)Cc2ccc(OC)c(OC)c2)c(=O)c2ccccc12
assay / compound	41	42	43	44	45	46	47	48	49	50
AF4-AF9 inh	-1.5	0.6	-10.9	nt	4.0	0.7	-1.1	0.0	-0.2	2.4
E coli growth	0.7	0.66	0.683	0.716	0.667	0.683	0.671	0.685	0.653	0.688
FGF22 binding	i	i	i	nt	i	i	i	i	i	i
UCH37 inh	2.3	4.3	-14.2	-0.4	0.2	0.8	11.3	2.7	5.4	-0.2
Ecoli rRNA inh	nt	6.2	-0.3	nt	5.0	11.1	9.3	-11.4	-12.8	-7.0
Ecoli rRNA inh OD600	nt	2.4	-5.8	nt	8.0	10.6	10.6	-10.3	-13.2	-5.3
Ecoli rRNA inh RFP	nt	-2.9	-2.2	nt	-1.7	-1.4	0.7	-0.3	-0.9	-1.1
T cruzi inh	7.7	-12.6	-7.1	-9.4	1.5	-8.1	-30.7	nt	-13.0	nt
Beta apoptosis	nt	-0.4	2.0	-5.2	-3.0	-5.8	-15.9	-7.4	-4.2	-4.1
Bfl-1 A1 inh	nt	1.4	-0.3	0.0	1.1	0.4	-0.2	0.1	0.1	-0.5

Three compounds drawn at random from those above:
44	O=C1c2ccccc2C(=O)N1CCc1ccccn1
45	CCOC(=O)C1CCN(C(=O)C(C)c2ccc([N+](=O)[O-])cc2)CC1 (centres undefined)
43	CCOC(=O)c1cc(C#N)c(SCC(=O)c2cc(C#N)c(SC)nc2C)[nH]c1=O
assay / compound	44	45	43
AF4-AF9 inh	nt	4.0	-10.9
E coli growth	0.716	0.667	0.683
FGF22 binding	nt	i	i
UCH37 inh	-0.4	0.2	-14.2
Ecoli rRNA inh	nt	5.0	-0.3
Ecoli rRNA inh OD600	nt	8.0	-5.8
Ecoli rRNA inh RFP	nt	-1.7	-2.2
T cruzi inh	-9.4	1.5	-7.1
Beta apoptosis	-5.2	-3.0	2.0
Bfl-1 A1 inh	0.0	1.1	-0.3

Only part of the results is shown; the hit share may differ from the screen's.
